High-throughput results as filed in PubChem BioAssay.
UUG fidelity: yeast start codon fidelity modulation. S. cerevisiae UUG-firefly luciferase reporter, luminescence/redox ratio. activity score, % at 18.7 µM. hit rate 0.13% among 350,000;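 active means replicate mean at a twofold rise or more, about +100% in these data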;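 further: firefly luciferase made from a UUG start codon reports start codon fidelity; reporter light over untreated wells divided by growth signal over untreated wells; some hits fall short of that in this replicate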
Rce1 inhib: yeast Ras-converting enzyme inhibition; Q03530; AID 2563; hit rate 0.27% among 290,000; calls only; yeast membranes, quenched prenylated peptide cleavage fluorescence;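 active means fall in fluorescence gain of 50% or more versus controls, with final raw signal at or below 3038400; inconclusive means same 50% fall but final raw signal above 3038400; inactive means fall in fluorescence gain under 50%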;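 further: plate controls were neutral control wells for no effect and wells lacking membranes for full effect; tested at 10 µM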
Target sequence (Q03530 whole entry, looked up): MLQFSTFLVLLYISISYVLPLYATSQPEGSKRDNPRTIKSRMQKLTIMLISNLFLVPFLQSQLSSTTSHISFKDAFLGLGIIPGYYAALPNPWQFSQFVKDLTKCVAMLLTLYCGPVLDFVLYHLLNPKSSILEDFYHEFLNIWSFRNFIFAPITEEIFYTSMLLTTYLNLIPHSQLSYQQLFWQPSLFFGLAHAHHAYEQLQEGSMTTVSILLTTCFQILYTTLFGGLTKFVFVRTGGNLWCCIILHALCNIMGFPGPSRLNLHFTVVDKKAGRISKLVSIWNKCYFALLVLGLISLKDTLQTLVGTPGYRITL
eIF4H FP inh: inhibitors of RNA binding by human eIF4H; Q15056; eIF4H fluorescence polarization binding assay; inhibition, % at 35 µM; hit rate 0.94% among 290,000; AID 2012;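 active means 50% or more with normal probe brightness, or confirmed in later tests; inconclusive means above 50% with abnormal brightness, or retests that disagree; inactive means below 50% or failed in later tests; about a fifth of its hits are not listed in these tables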;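 further: calls also rest on retests at 20 µM and on dose response follow-up; 0% = protein and probe with vehicle and 100% = probe without protein; strong numbers were not always called active; many hits fall short of the cut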
HIV Env fusion: blocks HIV Env-driven cell-cell fusion; HeLa-JRFL Env/CEM21 cell fusion, luciferase; inhibition, % at 12.3 µM; hit rate 1.1% among 360,000; AID 651610;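 active means mean replicate inhibition score of at least 50 and every replicate individually at or above 50; inconclusive means only one of the two criteria met; inactive means mean below 50 and not all replicates reaching 50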;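 further: 0% = plate neutral controls and 100% = maraviroc near 300 nM; one replicate is shown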
CSC inhib: blocks cancer stem cells. cancer stem cell-like cells viability, luminescence. inhibition, % at 7.5 µM. hit rate 1.1% among 300,000. AID 2717;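 active means mean at 75% or more and at least half the replicates too; inconclusive means mean and replicates disagree; tested in HMLE shEcad cells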;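 further: 0% = median of negative and 100% = median of positive control wells; the first replicate is given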
MT1-MMP act inh: MT1-MMP (human) activation inhibition. hit rate 0.061% among 360,000. P50281. HT1080 RFP-PRO-GFP cells, GFP/RFP ratio fluorescence, overnight; percent of plate control window, DMSO zero. GFP/RFP ratio change, % at 20 µM. AID 651647;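 active means GFP/RFP ratio change of at least 30% with cell ATP level not reduced by more than half and red fluorescence within 50% of control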; further: strong numbers were not always called active
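system = RFP-PRO-GFP reporter HT1080 cells | dosing = 20 µM single dose, 1% DMSO | timing = overnight cell settling, then overnight compound exposure, 37 °C, 5% CO2 | read-out basis = GFP/RFP fluorescence ratio | controls = DMSO and RFP-L50D-GFP cell wells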
PABP polyA inh: blocks human PABP binding to poly(A) RNA; P11940; fluorescence polarization; inhibition, % at 35 µM; hit rate 1% among 290,000; AID 2014;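 active means 50% or more with normal probe brightness, or confirmed in later tests; inconclusive means above 50% with abnormal brightness, or retests that disagree; inactive means below 50% or failed in later tests; about a fifth of its hits are not listed in these tables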;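 further: calls also rest on retests at 20 µM and on dose response follow-up; controls were probe without protein and protein plus probe with vehicle; some compounds called inactive have numbers as strong as hits; many hits fall short of the cut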
Target sequence (P11940 whole entry, looked up): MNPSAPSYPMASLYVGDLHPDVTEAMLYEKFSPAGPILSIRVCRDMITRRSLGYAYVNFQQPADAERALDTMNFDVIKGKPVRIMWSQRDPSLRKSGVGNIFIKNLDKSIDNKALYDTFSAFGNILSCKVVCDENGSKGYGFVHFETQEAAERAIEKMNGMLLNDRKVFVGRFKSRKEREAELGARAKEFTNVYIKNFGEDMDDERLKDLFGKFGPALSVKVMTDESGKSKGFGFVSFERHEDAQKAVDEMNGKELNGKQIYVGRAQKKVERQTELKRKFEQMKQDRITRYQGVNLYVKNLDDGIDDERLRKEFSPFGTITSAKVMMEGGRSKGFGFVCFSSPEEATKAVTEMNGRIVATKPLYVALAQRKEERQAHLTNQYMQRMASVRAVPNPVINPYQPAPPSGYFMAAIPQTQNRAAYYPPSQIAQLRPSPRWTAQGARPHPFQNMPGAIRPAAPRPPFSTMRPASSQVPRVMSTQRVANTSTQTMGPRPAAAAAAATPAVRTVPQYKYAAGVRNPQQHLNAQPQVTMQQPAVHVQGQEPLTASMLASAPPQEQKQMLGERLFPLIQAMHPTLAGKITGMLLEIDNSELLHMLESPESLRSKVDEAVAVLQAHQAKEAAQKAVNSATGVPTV
eIF4H FP inh retest: recorded beside eIF4H FP inh, whose call it bears; inhibition, %; compound at 20 µM; confirmation average;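 mean of two retest wells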
PABP polyA inh retest: also measured in PABP polyA inh; calls as there; inhibition, %; compound at 20 µM; confirmation repeats;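 mean of two retest wells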
MT1-MMP act inh RFP: second read-out of MT1-MMP act inh, no call of its own (marks repeat the call); RFP signal change, %; measured here: RFP expression control read;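 0 = vehicle wells; hits needed this value within 50% of zero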
* = called active by the depositor; i = inactive; u = inconclusive; x = not tested or not shown; + = active, no number. Hits appear at their usual frequency (roughly 2.9% active in at least one column).

SMILES	UUG fidelity	Rce1 inhib	eIF4H FP inh	HIV Env fusion	CSC inhib	MT1-MMP act inh	MT1-MMP act inh RFP	PABP polyA inh	others
c1ccc(-n2c(-c3ccncc3)nnc2-c2ccco2)cc1	-10	x	10	-12	-4	-2	0	-4
CNC(=O)c1ccccc1-c1ccccc1	-18	i	4	-10	10	5	4	-3
COc1ccc(/C(O)=C2/C(=O)C(=O)N(CCN3CCOCC3)C2c2cccnc2)cc1OC (stereo not given)	-3	i	1	-20	x	4	5	-4
c1ccc(Oc2cccc(OCCCCSc3ncccn3)c2)cc1	1	i	4	13	8	-3	-6	-2
COc1cc(C(C)=O)ccc1OCC(=O)c1cc(C)n(C2CC2)c1C	x	i	-3	-42	-3	4	5	-1
CC(C)[C@H](NC(=O)c1ccccc1)C(=O)OCC(=O)c1ccccc1F	x	i	-4	4	-13	0	2	10
COc1ccc2c(c1OC)C(=O)N(c1nc(SC)n[nH]1)C2=O	-5	i	1	-2	-14	2	4	8
Cc1ccc(N(CC(=O)NCC2CCCO2)C(=O)CCC(=O)Nc2nccs2)cc1C (stereo not given)	-3	i	2	-5	13	-1	1	8
O=c1[nH]c(SCCc2ccccc2)nc2c1CCC2	-17	x	x	-10	x	3	4	x
Cc1nc2ccccc2c(=O)n1NC(=O)Cc1ccc(Br)cc1	-18	i	15	-6	-11	2	-1	8
CCOc1ccc(-c2nnn(CC(=O)Nc3cc(OC)cc(OC)c3)n2)cc1OCC	-9	i	-8	x	0	6	4	-5
CCCC(C(=O)NCc1ccco1)N(C(=O)CNS(=O)(=O)c1ccccc1)c1ccc(OC)cc1 (stereo not given)	-9	i	-6	25	-13	6	5	-5

The last 3 entries of the section before open the next one.
SMILES	UUG fidelity	Rce1 inhib	eIF4H FP inh	HIV Env fusion	CSC inhib	MT1-MMP act inh	MT1-MMP act inh RFP	PABP polyA inh	others
Cc1nc2ccccc2c(=O)n1NC(=O)Cc1ccc(Br)cc1	-18	i	15	-6	-11	2	-1	8
CCOc1ccc(-c2nnn(CC(=O)Nc3cc(OC)cc(OC)c3)n2)cc1OCC	-9	i	-8	x	0	6	4	-5
CCCC(C(=O)NCc1ccco1)N(C(=O)CNS(=O)(=O)c1ccccc1)c1ccc(OC)cc1 (stereo not given)	-9	i	-6	25	-13	6	5	-5
CN(Cc1ccco1)C(=O)C1CCCN(c2ncnc3c2nc2n3CCCCC2)C1 (stereo not given)	-6	i	-3	-11	11	0	1	-2
CCn1c(SCC(=O)Nc2ccc(C(=O)OC)cc2)nc2cccnc21	6	i	-12	3	x	-6	-1	-1
CC(=O)N/C(=C\c1ccccc1)C(=O)OCc1ccc(F)cc1	-6	i	-6	5	x	1	2	-2
C1=CCC(/C=N/n2cnnc2)CC1 (stereo not given)	-3	i	-2	x	-10	1	3	-3
C=CCn1c(SCC(=O)Nc2ccc(N(C)C)cc2)nnc1-c1cccc(C)c1	-20	i	4	x	22	0	1	8
COCC(=O)Nc1nnc(COc2ccc(Cl)cc2)s1	-21	i	2	x	-8	1	3	13
CCN1CCCc2cc(CN(CCN3CCOCC3)C(=S)Nc3ccc(C)cc3)ccc21	-4	i	1	6	2	1	1	u
Cc1ccc(NC(=O)Nc2nnc(Cc3ccc([N+](=O)[O-])cc3)s2)cc1C	-5	i	-3	38	x	-6	-8	10
COCCNC(=S)N/N=C(\C)c1ccc(Cl)c(Cl)c1Cl	x	i	-8	12	-8	3	2	-2
COc1ccc(C(=O)Nc2cc(C)c(NC(=O)c3ccccc3OC)cn2)cc1	-5	i	-3	-6	4	-1	-5	4
CN(C)S(=O)(=O)N1CCC(Oc2ccc(C(=O)NC3CCOC(C)(C)C3)cc2)CC1 (stereo not given)	-3	i	-11	-7	1	2	1	-2
COCc1nc2ccccc2n1CCCOc1ccccc1	-23	i	2	x	-8	-6	-2	-10
CC1(C)CC(=O)C=C(c2ccc3ccccc3c2)C1	-5	x	x	-18	0	4	1	x
CCC(C(=O)OCC(=O)Nc1ccc(C)c(S(=O)(=O)N2CCOCC2)c1)c1ccccc1 (stereo not given)	11	i	x	16	x	4	-6	x
Cc1ccc(S(=O)(=O)Nc2cc3c(C(=O)O)c(C)oc3c3ccccc23)c(C)c1	-17	x	48	17	-3	-8	6	54	eIF4H FP inh retest=28;PABP polyA inh retest=41
COc1cc2c(cc1OC)CN(C(=O)c1ccc(N3CCCC3)c([N+](=O)[O-])c1)CC2	-8	i	x	-5	-5	4	-2	x
COc1cc(NS(=O)(=O)c2ccc(N/C=C(\C=O)c3nc4cc(Cl)ccc4o3)cc2)nc(OC)n1	-22	i	-7	x	5	-51	4	-3
COc1ccc2c(c1)cc(C(=O)N[C@@H](CCSC)C(=O)N1CCC(C(=O)O)CC1)n2C	2	+	6	-5	-10	4	4	3
O=C(NC1CCCC1)C(c1ccccc1)N(Cc1ccco1)C(=O)Cc1cccs1 (stereo not given)	-1	i	-10	x	-12	-9	-7	-7
N#C/C(=C\c1c(N2CCCCCC2)nc2ccccn2c1=O)C(=O)NCc1ccco1	x	i	5	11	5	-2	1	13
O=C(NC1CCCCC1)N1CCN(Cc2nc3ccccc3c(=O)[nH]2)CC1	-10	i	x	x	x	11	4	x
CCOc1ccc(N2C(=O)CC(SCCN)C2=O)cc1 (stereo not given)	-46	i	0	-91	-13	-8	0	-1
COc1ccc(CCC(=O)Nc2cc(S(=O)(=O)N3CCOCC3)ccc2OC(C)C)cc1	-13	x	x	2	3	-1	2	x
CCCc1nc2sc3c(c2c(=O)n1NC(=O)CCCl)CCCC3	-6	i	6	x	-5	-5	-2	1
CCOC(=O)c1cnn(-c2nc(-c3cccc(F)c3)cs2)c1C(F)(F)F	-13	i	-6	-151	-11	1	-5	-8
Cc1ccc(OCC(O)Cn2c(N3CCCCC3)nc3c2c(=O)[nH]c(=O)n3C)cc1C (stereo not given)	-16	i	-1	9	-10	3	-3	-4
CCn1c(=O)c(-c2ccccc2)c(O)c2ccccc21	-16	+	-1	-15	x	-1	1	3
O=C(CCNC(=O)c1ccccc1Cl)OCC(=O)c1ccccc1	x	i	-4	6	3	-13	-5	-8
COc1cc(NC(=O)c2cccs2)c(OC)cc1NC(=O)c1cccs1	-17	i	4	x	-6	4	6	3
CC1=C(C(=O)NCc2ccccc2)C(c2ccccc2OCC(N)=O)NC(=O)N1 (stereo not given)	-2	i	2	x	1	2	4	-5
Cc1cc(OCC(=O)NCCCn2ccnc2)c2c(C)cc(=O)oc2c1	-7	i	0	6	21	1	-4	-4
Cc1oc2cc(O)ccc2c(=O)c1Oc1ccc2ccccc2c1	-8	i	3	18	-6	-1	4	7
CC(=NCc1ccco1)c1c(C(F)(F)F)[nH]n(-c2nc3ccccc3s2)c1=O	-20	i	7	-82	19	3	4	8
O=C(c1cccc(S(=O)(=O)N2CCOCC2)c1)N(CCO)Cc1ccccc1	-17	i	-9	-15	0	-1	0	-5
Cn1c(SC2C(=O)CC(C)(C)CC2=O)nnc1-c1ccco1	-10	i	7	x	-7	4	9	29
CCN(C(=O)CN1CCN(c2cccc(C(F)(F)F)c2)CC1)c1c(N)n(Cc2ccccc2)c(=O)[nH]c1=O	x	i	1	8	4	-4	-5	8
CCc1nn(CC(=O)NCCCN(CC)CC)c(=O)c2cc3sc(C)cc3n12	-10	i	-5	2	11	1	0	9
COC(=O)CCCNc1ncccc1[N+](=O)[O-]	-8	i	3	-25	-7	1	5	-5
COc1ccccc1Nc1ncnc2ccccc12	x	i	6	x	3	3	-1	-6
CCn1c(SCC(=O)Nc2ncc(C(F)(F)F)cc2Cl)nnc1-c1ccccc1	1	i	-9	-5	8	-3	4	-11
O=C(N/N=C/c1cccc(OCC(=O)N2CCCC2)c1)C(=O)Nc1ccccc1F	-6	i	11	-2	5	2	4	-5
Cc1ccc2c(c1)c(C)c(C)n2CC(O)CN1CCCCC1C (stereo not given)	-2	i	1	-24	-1	5	8	11
Cc1ccc(C(NC(=O)/C=C\c2ccc3c(c2)OCO3)C(=O)Nc2ccc3c(c2)OCO3)cc1 (stereo not given)	-6	i	6	-27	-8	-2	-4	1
COc1ccc(NC(=O)Cn2ncc(Cl)c(Cl)c2=O)cc1S(=O)(=O)N1CCOCC1	-9	i	90	-46	51	-6	-2	1.8*	eIF4H FP inh retest=-9;PABP polyA inh retest=58*
COc1cccc(CN(CC(=O)NC2CCCC2)C(=O)Cn2nnc(-c3cccs3)n2)c1	-9	i	-10	-89	-19	-2	-13	10
O=C(Nc1nnc([C@@H]2C[C@H](O)[C@@H](CO)O2)s1)NC(c1ccccc1)c1ccccc1	-8	x	x	-10	x	-4	-2	x
COc1cccc(C(C(=O)NC2CCCC2)N(C(=O)c2ccco2)c2ccc(-n3cnnn3)c(C)c2)c1OC (stereo not given)	x	i	2	-23	-1	-8	-5	-2
Fc1cccc(Cn2cc(C(=S)N3CCOCC3)c3ccccc32)c1	x	i	3	-4	-7	-2	-4	-6
Cc1ccccc1NS(=O)(=O)c1ccc(C(=O)OCC(=O)NCC(C)C)cc1	0	i	-7	9	x	6	2	51	eIF4H FP inh retest=-8;PABP polyA inh retest=8
COCCNC(=O)c1ccc(N2CC3CC(C2)c2cccc(=O)n2C3)c(NC(=O)c2ccc(C(C)(C)C)cc2)c1 (stereo not given)	16	x	x	6	x	3	1	x
CCCCCCSc1ccc(-c2nc3ccc(C)cn3c2NC2CCCCC2)cc1	-25	i	x	32	40	4	-4	x
COc1ccc(S(=O)(=O)NCCSCc2ccco2)cc1	-6	i	7	x	x	-4	-4	13
COC(=O)c1cc(OC)c(OC)cc1NC(=O)c1ccc(C)o1	x	i	-2	x	-2	5	-4	5
CCCSc1ccc([C@H]2N[C@@](Cc3ccccc3)(C(=O)OC)[C@H]3C(=O)N(C)C(=O)[C@@H]23)cc1	-9	x	x	-31	x	-1	-6	x
CCC(=O)N1CCc2cc(S(=O)(=O)NC(C(=O)NC(C)c3ccccc3)C(C)C)ccc21 (stereo not given)	-6	i	10	-25	x	4	7	0
Cn1ccnc1Sc1nc2c(c(=O)n(C)c(=O)n2C)n1C	-11	i	4	x	3	4	4	3
Cc1ccc(-n2nnnc2SCc2nnc(-c3ccccc3Br)o2)cc1	-32	i	16	x	14	0	-2	18
O=C(Cc1csc(-c2ccccc2)n1)NCc1ccc(F)cc1	-13	i	4	11	-1	-5	-2	7
COc1ccc(-c2ccc(C(=O)NCC(C)C)c3occc23)c(C)c1	-4	x	x	30	x	-2	-25	x
Cc1nnc(SCc2ccc(C(=O)O)cc2)s1	-8	i	-11	-10	2	-2	-5	-3
The results go on:
SMILES	UUG fidelity	Rce1 inhib	eIF4H FP inh	HIV Env fusion	CSC inhib	MT1-MMP act inh	MT1-MMP act inh RFP	PABP polyA inh	others
O=C(CCN1C(=O)c2ccccc2C1=O)Nc1nc2ccccc2s1	x	i	3	-7	13	-1	2	-14
Cc1ccc(/C=N/NC(=O)CNC(=O)COc2ccc(Cl)cc2)o1	x	i	0	13	-5	1	4	-2
Cc1c(Cl)c([N+](=O)[O-])nn1CC(=O)NC1CCCCC1	-10	i	-11	x	x	1	4	8
COc1cc(/C=N/c2oc(C)c(C)c2C#N)cc(Br)c1O	2	i	35	7	-17	33*	48*	-19
O=C(NC1CCCCC1)C(c1ccc(F)cc1)N(C(=O)c1csnn1)C1CC1 (stereo not given)	-7	x	-4	-5	-8	4	3	1
CC(=O)Nc1ccc(NC(=O)Nc2cccc(C)c2C)cc1	0	i	-2	-3	-19	5	8	-3
